Screening data deposited in PubChem BioAssay by ICCB-Longwood Screening Facility, Harvard Medical School.
Ba CapD inh – CapD enzyme inhibition. purified CapD enzyme, fluorescence intensity read-out; active compounds read low; some hits fall short of the stated cut. z-score (concentration not given with the values). 0.23% of 140,000 active. AID 492967;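 active = z-score under -4 in either of two replicates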;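 also: stock transfer was 100 nL into about 40 µL; score is relative to mean and spread of the plate; one replicate is shown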
AID504770 – E. coli YBA685 growth inhibition, screen for V. cholerae RctB inhibitors; E. coli YBA685 rctB-dependent plasmid, OD600 growth, 3 h; active compounds read low; z-score (no concentration beside the values); 0.27% of 130,000 active;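 active = z-score under -2 on both plates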;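 also: wells of about 30 µL received 100 nL stock; score is relative to mean and SD of the test wells; the first replicate is given; strong numbers were not always called active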
* marks the source's active call; other numbers are inactive results; i = inactive; x = no result given.

SMILES	Ba CapD inh	AID504770
CCN(CC)c1ncnc2sc3c(c12)CCC(C#N)(c1ccccc1)C3 (stereo not drawn)	0.91	0.15
COc1ccc(CCCOC(=O)NNC(=O)c2sc(-c3ccc(C(F)(F)F)cc3)nc2C)cc1	2.7	x
Cc1cc(C)c2c(CC(=O)NC3CC(C)(C)NC(C)(C)C3)coc2c1	0.21	0
O=S(N1CCCCCC1)C12CC3CC(CC(C3)C1)C2 (stereo not drawn)	-0.22	-0.5
Cc1ccc(SC(=O)c2cccnc2Oc2ccccc2)cc1	-0.82	x
O=C(CS(=O)(=O)c1ccc(Cl)cc1)c1ccc(Cl)cc1Cl	-0.8	x
Cc1ccc(-n2[nH]c(C)c(C=Nc3ccc([N+](=O)[O-])c([N+](=O)[O-])c3)c2=O)cc1C	0.27	x
COC(=O)c1c(NC(=O)c2ccc(OC)cc2)sc2c1CCN(C)C2	22	-0.1
CC(=O)OC(C(=O)N1CCN(C(c2ccccc2)c2ccccc2)CC1)c1ccccc1 (stereo not drawn)	-0.35	0
CC1(C)CC(=O)NC=C(c2ccccc2)C1	x	0.6
COC(=O)c1ccccc1NC(=O)c1cc2c(s1)-c1ccccc1S(=O)(=O)C2	1.4	-0.9
c1csc(-c2csc(Cc3nc(-c4cccs4)cs3)n2)c1	-0.14	0.85
O=C(NCc1cccs1)c1cc2c(s1)CCCC2	x	-0.3
CC(=O)Nc1cccc(-n2nnc(SCC(=O)c3ccccc3)n2)c1	-0.57	-0.95
COc1ccc(-n2nc3c(c2NC(C)=O)CS(=O)C3)cc1 (stereo not drawn)	0.45	x
COc1ccc(C(NC(=O)C(C)C)c2ccc3cccnc3c2O)cc1OC (stereo not drawn)	-0.94	-0.2
CC(C)NC(=O)C1CCN(S(C)(=O)=O)CC1	x	0.35
COc1ccc(NC(=O)c2sc(SC)nc2N)cc1	0.12	-0.8
O=C(COC(=O)C1CC2C=CC1C2)NCc1ccc(F)cc1 (stereo not drawn)	0.14	0.5
CC(=O)N1CCN(c2nc(-c3ccccc3)c3cc(Cl)ccc3n2)CC1	0.64	x
O=C(COc1ccccc1)Nc1ccccc1Cl	-1.1	-0.45
CCc1ccc(-n2c(SCC(=O)NCc3ccco3)nc3n[nH]c(C)c3c2=N)cc1	0.72	-0.25
CCc1[nH]nc2c1C1(C(=O)N(CC)c3ccccc31)C(C#N)=C(N)O2 (stereo not drawn)	x	-0.05
Clc1ccc(CCN2COc3cc4c(cc3C2)OCO4)cc1	-0.1	-0.6
COc1ccc(F)c(CN2CCN(S(=O)(=O)c3cccc(C)c3)CC2)c1	0.14	x

Molecules above with an aryl methoxy group:
SMILES	Ba CapD inh	AID504770
COc1ccc(CCCOC(=O)NNC(=O)c2sc(-c3ccc(C(F)(F)F)cc3)nc2C)cc1	2.7	x
COC(=O)c1c(NC(=O)c2ccc(OC)cc2)sc2c1CCN(C)C2	22	-0.1
COc1ccc(-n2nc3c(c2NC(C)=O)CS(=O)C3)cc1 (stereo not drawn)	0.45	x
COc1ccc(C(NC(=O)C(C)C)c2ccc3cccnc3c2O)cc1OC (stereo not drawn)	-0.94	-0.2
COc1ccc(NC(=O)c2sc(SC)nc2N)cc1	0.12	-0.8
COc1ccc(F)c(CN2CCN(S(=O)(=O)c3cccc(C)c3)CC2)c1	0.14	x

The listing continues.
SMILES	Ba CapD inh	AID504770
CC1CCCC(C)N1/N=C/c1ccc(C(=O)O)cc1 (stereo not drawn)	x	1.3
N#C/C(=C\c1cn(CC(=O)N2CCCC2)c2ccccc12)C(=O)NC1CC1	x	-0.3
O=C(NCCO)c1cc2cc(Cl)ccc2o1	x	-0.75
O=C(CCC(=O)N1CCC(c2nc(-c3cccs3)no2)CC1)NCCc1ccccc1	-0.39	x
CN(C)CCO/N=C(\c1ccccc1)c1ccncc1	0.14	-0.45
Cc1ccc2c(c1)NC(CN=C(N)N)CC2 (stereo not drawn)	-0.58	-1.2
CC(C)(C)OC(=O)C1CCCN1S(=O)(=O)c1cccc(F)c1 (stereo not drawn)	-0.29	x
Cc1nc(C(=O)Nc2ccc(Cl)cc2)nn1-c1cc(Cl)cc(Cl)c1	0.14	x
N#Cc1c(N(S(=O)(=O)c2ccccc2)S(=O)(=O)c2ccccc2)sc2c1CCCC2	-0.27	1.9
CCOC(=O)c1cc[nH]c1C	-0.35	-0.2
COc1ccc(S(=O)(=O)N2CCC(N(C)C(C)C)CC2)cc1	0.17	-0.35
CCS(=O)(=O)Nc1ccc(Cc2ccncc2)cc1	x	1.8
O/N=C(/c1ccccc1)c1cc2cc(Br)cc(Br)c2o1	-0.43	x
Cn1c(CC(=O)NN)nc2ccccc21	x	0.65
COc1cccc(NC(=O)N2CCC(CN3CCCCCC3)CC2)c1	-1.5	0.45
CCCN1C2CCCC1CC(NC(=O)Nc1ccccc1C(F)(F)F)C2 (stereo not drawn)	x	-0.95
COC(=O)c1cccc(NC(=O)Nc2ccccc2)c1	-0.22	0.3
O=C1CCCC2=C1C(c1cc(Br)ccc1O)C1C(=O)c3ccccc3C1=N2 (stereo not drawn)	-0.59	2.2
CCOc1ccc(-n2c(N)c(C(=O)Nc3ccccc3C)sc2=S)cc1	-0.03	x
CC(C)CCN(C)C1CCN(C(=O)Nc2ccccc2)CC1	-0.33	-1.4
CCOC(=O)C1C(=O)C=C(c2ccc3ccccc3c2)CC1c1ccc(C(F)(F)F)cc1 (stereo not drawn)	8.1	-0.25
O=C(Nc1ccccc1)c1cc2ccccc2c(=O)s1	-0.74	0.4
CCOC(=O)c1ccc2c(c1)nc(C)n2CC	0.15	0.45
Nc1nc(Cn2nnc(-c3ccccc3F)n2)nc(N2CCOCC2)n1	0.51	x
O=S(=O)(N=C1SCCS1)c1ccccc1	0.32	-0.2

Not a retest: two of the compounds above.
SMILES	Ba CapD inh	AID504770
Nc1nc(Cn2nnc(-c3ccccc3F)n2)nc(N2CCOCC2)n1	0.51	x
O=S(=O)(N=C1SCCS1)c1ccccc1	0.32	-0.2

An excerpt of these results, bar-delimited.
Compound | Ba CapD inh | AID504770
CCOc1ccc(-n2c(N)c(C(=O)Nc3ccccc3C)sc2=S)cc1 | -0.03 | x
O=C(Nc1ccccc1)c1cc2ccccc2c(=O)s1 | -0.74 | 0.4
N#C/C(=C\c1cn(CC(=O)N2CCCC2)c2ccccc12)C(=O)NC1CC1 | x | -0.3
CCCN1C2CCCC1CC(NC(=O)Nc1ccccc1C(F)(F)F)C2 (stereo not drawn) | x | -0.95
CCOC(=O)c1ccc2c(c1)nc(C)n2CC | 0.15 | 0.45

Next section:
SMILES	Ba CapD inh	AID504770
CNCc1c(C)nn(-c2ccccc2)c1C	x	-0.05
COc1cc(C(F)(F)F)nc2ccc(C#CCOC(=O)Nc3ccccc3)cc12	-0.18	1.8
COc1ccc2cc3c(N)nn(C(=O)C4Cc5ccccc5CN4S(C)(=O)=O)c3nc2c1 (stereo not drawn)	-0.14	-0.5
Cc1nc(-c2c(C(=O)NNC(=O)c3cn[nH]c3)noc2C)cs1	-0.39	x
c1ccc(CC2CCN(Cc3ccncc3)CC2)cc1	0.15	-2.5
COC(=O)C1=C(C)NC(=O)CC1c1ccccc1Cl (stereo not drawn)	-0.11	x
CCc1ccc(C2N3CC4(CC)CN2CC(CC)(C3)C4=O)cc1 (stereo not drawn)	-0.21	-0.6
Cc1ccc(CCCN)c(C)c1	x	-0.5
Cc1ccc(C(C#N)N2CCOCC2)cc1 (stereo not drawn)	0.03	0.45
CCOC(=O)c1sc2nc(SCC(=O)N3CCCC3)n(Cc3cccs3)c(=O)c2c1C	-0.18	x
O=C(CSc1nsc(SCC(=O)Nc2ccc(F)cc2)n1)Nc1ccc(F)cc1	0.35	0.55
CC1CCN(S(=O)(=O)c2ccc(C(=O)NC34CC5CC(CC(C5)C3)C4)cc2)CC1	-0.49	0.65
Cc1c(C(=O)NC2CCN(Cc3ccccc3)CC2)cnn1-c1ccc(Cl)cc1	-0.57	0.25
CC1CCCCC1Nc1ncnc2onc(-c3ccc(F)cc3)c12 (stereo not drawn)	1.1	0.55
N#Cc1c(C(F)(F)F)cc(C23CC4CC(CC(C4)C2)C3)nc1SCCC(=O)O	-0.035	-0.85
O=C(Nc1ccccc1C(=O)N/N=C/c1c[nH]c2cc(OCc3ccccc3)ccc12)c1cccs1	0.54	x
Cc1cccc(C)c1-n1c(SCC(=O)Nc2cccc(C#N)c2)nnc1-c1cccc(S(=O)(=O)N(C)C)c1	x	0.95
CN(C)C(=O)CSc1nc(-c2ccccc2)nc2c1CCCC2	-0.16	0.75
O=C(c1cccc(C(F)(F)F)c1)N1CCN(C(=O)c2ccc3cc[nH]c3c2)CC1	0.71	x
CC(NC(=O)Cn1cc(S(=O)(=O)N(C)C)ccc1=O)c1ccc2c(c1)OCCO2 (stereo not drawn)	x	-0.15
Cc1cc(C(=O)CSc2nc(-c3ccccc3)cn2N)c(C)n1Cc1ccc2c(c1)OCO2	x	0.1
O=C(Nc1ccc(N2CCOCC2)cc1)c1cccnc1	-0.17	1.1
CC(O)c1ccc(C(C)O)cc1 (stereo not drawn)	0.41	-0.5
O=c1[nH]c(Nc2nc3ccccc3o2)nc2ccccc12	x	2.5
CC1(C(=O)NC2CCCC2)CCC(=O)N1CCC1=CCCCC1 (stereo not drawn)	-0.42	-0.4

(more compounds)
SMILES	Ba CapD inh	AID504770
CC1CCCCN1CCCNC(=O)c1cc2c(s1)-c1ccc(Cl)cc1SC2 (stereo not drawn)	25	0.5
Cc1cc(=O)[nH]c(SCC(=O)Nc2nnc(CC(C)C)s2)n1	-0.05	-0.55
C=CCNc1nc2c(c(=O)n(C)c(=O)n2C)n1Cc1ccc(F)cc1	0.55	-1.1
Cc1ccccc1CN(C)CC(=O)NC(=O)NC1CCCCC1	x	-1.2
CCCN1C(=O)/C(=c2\sc3n(c2=O)C(c2cccc([N+](=O)[O-])c2)C(C(=O)OCC)=C(C)N=3)c2ccccc21 (stereo not drawn)	-0.2	x
CCNC(=O)CC1C(=O)N(c2ccccc2)C(=O)N1Cc1ccc(OC)cc1 (stereo not drawn)	7.9	-0.5
CCC(NC(=O)c1ccccc1NC(=O)c1ccccc1)C(=O)N1CCCC1 (stereo not drawn)	-0.43	-0.25
CCN1CCN(Cc2ccc3c(c2)Cc2ccccc2-3)CC1	0.26	-0.05
Fc1ccc(-c2nc(-c3ccccn3)ncc2-c2ccncn2)cc1	-0.61	x
Cc1ccccc1Nc1nc(N)nc(COC(=O)Cc2ccc(Cl)cc2)n1	x	0.15
NS(=O)(=O)c1ccc(NNC(=O)c2c(F)cccc2Cl)cc1	-0.73	-0.65
CCn1c(COc2cccc(C(F)(F)F)c2)nnc1SCC(N)=O	-1.1	x
C(=N\N1CCN(Cc2cccc3ccccc23)CC1)/c1ccncc1	-0.035	-0.85
c1ccc(-n2nc(SCC3COc4ccccc4O3)nc2C2CC2)cc1 (stereo not drawn)	x	0.1
COc1cc2c(cc1OC)C(c1ccccc1)N(C(=O)CSc1nnc(-c3c[nH]c4ccccc34)o1)CC2 (stereo not drawn)	x	1.4
NC(N)=Nc1nc2ccccc2o1	-0.035	-0.5
CSc1nccc(-c2ccsc2)n1	0.7	x
O=C(CCC(=O)N1CCC(c2nc(-c3cccs3)no2)CC1)NCc1cccc(Cl)c1	-0.34	x
Cc1occc1C(=O)Nc1ccc(Cl)cc1F	x	-0.05
Cc1nccc2[nH]c(=O)c(C(=O)NC3CCCc4ccccc43)cc12 (stereo not drawn)	-0.5	-0.6
NS(=O)(=O)c1ccc(S(=O)(=O)NCC(=O)c2ccccc2)cc1	0.27	-0.65
Cc1ccc2c(C)c(CCC(=O)O)c(=O)oc2c1	x	-0.4
Nc1n[nH]c(Cc2nc3ccccc3[nH]2)n1	x	-0.3
COc1ccc(C2=NN3C(C2)c2cccc(OC)c2OC3(C)C)cc1 (stereo not drawn)	1.1	-0.75
CCOc1cc(C(=O)Nc2c3c(nn2-c2cccc(C)c2C)CS(=O)(=O)C3)cc(OCC)c1OCC	1.9	x

The list goes on.
SMILES	Ba CapD inh	AID504770
O=C1CCNc2ccc(-c3ccccc3)cc21	2.4	-0.5
CCOC(=O)Cc1c(Cl)c2ccccc2[nH]c1=O	4.5	-0.3
NC(=S)c1ccc(-c2cccs2)s1	65	0.15
CSc1nnc(-c2ccccc2)c(-c2ccccc2)n1	0.69	-0.9
CC(C)(C)c1ccc(C(=O)Nc2ccc(NC(=O)c3cc4ccccc4oc3=O)cc2)cc1	0.99	x
CCCC(=O)Nc1cccc(Oc2nc(C)cc(C)c2C#N)c1	-0.99	x
OCc1nccn1C(F)F	x	-0.2
C=CCNC(=S)NCCO	-0.74	x
CCc1c(C#N)c(N)nc(SCC(=O)c2ccccc2)c1C#N	x	0.05
O=C(Nc1ccc(F)cc1F)NC1CC(=O)N(Cc2ccccc2)C1 (stereo not drawn)	-0.16	-0.2
Cn1cc(CN2CCc3ccccc3C2)c2ccccc21	0.93	1.1
CC(C)NS(=O)(=O)c1ccc(N2C(=O)CC3(CCCC3)C2=O)c(Cl)c1	-0.74	-0.4
Cc1nc2ccc(C(=O)OCc3ccccc3)cc2nc1C	0.065	0.45
Cc1noc(C)c1CSC1=N/C(=C\c2ccco2)C(=O)N1c1ccc(OC(F)F)cc1	x	0.85
Cc1cnc(C(=O)OCCOc2ccc(Br)cc2)cn1	x	1.8
Cc1ccc2nc(NCCN3CCOCC3)c3nncn3c2c1	0.55	-0.15
N#Cc1ncc(C(F)(F)F)cc1Oc1ccc(Cl)cc1	-0.56	x
CC1CCc2onc(C(=O)N3CCCCC3)c2C1 (stereo not drawn)	0.11	-0.3
CCOC(=O)CSc1nc(C)c(C(=O)Nc2ccccc2)c(-c2ccc(OC)cc2)c1C#N	-0.06	x
CCOC(=O)N/N=C/c1ccc(F)cc1	-0.7	x
O=C(c1ccc(-c2ccccn2)s1)N1CC=CCC1	0.015	x
O=C1CSC(c2ccc3c(c2)OCO3)N1c1ccc(Oc2ccccc2)cc1 (stereo not drawn)	0.09	x
CCOC(=O)c1cc(C#N)c2ccccn2c1=O	74	x
Clc1ccc(CSc2nnc(Cc3ccccc3)c3ccccc23)cc1	0.28	x
CC(=O)Nc1ccc(S(=O)(=O)NCc2ccccn2)cc1	i	-0.35
CCCNC(=O)c1cc(C)no1	-0.78	-0.8
